Mtb hypoxia rep = Mtb hypoxia fluorescent reporter inhibition; M. tuberculosis hypoxia-regulated fluorescent reporter, fluorescence; fluorescence inhibition, % (test concentration not listed); 0.1% of 300,000 active; AID 1159583;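 active means 35 to 45% if threefold the growth effect, above 45% if 1.5-fold the growth effect; inactive means the rest, general growth blockers included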;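 further: wells of about 50 µL received 100 nL stock; 0% = vehicle wells and 100% = reference inhibitor wells; whole bacteria with a GFP reporter of the hypoxia response; strong numbers were not always called active; many hits fall short of the cut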
ugtP null kill = kills S. aureus RN4220 lacking UgtP. S. aureus RN4220 ugtP deletion, OD600 growth, 16 h; some inactives read as strong as hits. growth inhibition, % (no concentration beside the values). 0.54% of 330,000 active. AID 1259309;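 active means z-score under -3 and OD600 up to 0.15 on both plates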;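 further: plate controls were untreated wells for no effect and antibiotic for full effect; wells of about 80 µL received 100 nL stock; the first replicate is given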
RN4220 kill = S. aureus RN4220 growth inhibition; OD600, 16 h; inhibition, % (concentration not given with the values); 0.33% of 330,000 active;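 active means z-score of -3 or lower and OD600 up to 0.18 on both plates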;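 further: plate controls were untreated cells for no effect and reference antibiotic for full effect; stock transfer was 100 nL into about 80 µL; one replicate is shown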
BJeLR viability = kills HRASV12-expressing BJeLR cells; BJeLR (HRASV12) viability, CellTiter-Glo ATP luminescence, 48 h; reference of the scale not given here; inhibition, % (no concentration beside the values); 0.17% of 300,000 active; AID 1554;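 active means replicate mean above 50%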;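 further: 50 nL library stock added to about 25 µL; numbers are from one replicate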
Autofluor counter = compound fluorescence in toxin protease inhibitor counterscreen; fluorescence intensity (test concentration not listed); 3.1% of 360,000 active; compound autofluorescence counterscreen, microsphere flow cytometry; stronger effect = higher value;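 active means at least 3 SD above the mean of all compounds, about 16000 in these data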;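 further: 100 nL of 1 mM stock went into each well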
PrP UTR inh = suppresses PrP 5' UTR mRNA reporter expression; cell-based PrP 5' UTR mRNA reporter, plate reader; inhibition, % (test concentration not listed); 0.35% of 340,000 active;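 active means every replicate at 50% or more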;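 further: 0 = median of the neutral control wells; tested in H4 reporter cells; numbers are from one replicate; inactives centre near -14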
Mtb hypoxia rep growth = further read-out of Mtb hypoxia rep, marked with its call; growth inhibition, %; measured here: M. tuberculosis growth (absorbance);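 0% = vehicle and 100% = reference antibiotic; read after six days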
* marks the source's active call; other numbers are inactive results.

A first look:
Results for CCOc1ccc(/C=C(\C#N)C(=O)Nc2cccnc2)cc1 ?
Mtb hypoxia rep: 9; ugtP null kill: -1; RN4220 kill: 5.4; BJeLR viability: 1; Autofluor counter: 2338; PrP UTR inh: -14; Mtb hypoxia rep growth: 3

Results for CCOC(=O)C1CCN(C(=S)Nc2ccc(S(N)(=O)=O)cc2)CC1 ?
Mtb hypoxia rep: 0; ugtP null kill: 2; RN4220 kill: 5.4; BJeLR viability: 7; Autofluor counter: 2050; PrP UTR inh: -23; Mtb hypoxia rep growth: 17

How did Cc1ccc(C)c(OCC(=O)N/N=C/c2ccsc2)c1 do in these assays?
BJeLR viability: -1; Autofluor counter: 5012; PrP UTR inh: -14

What do the screens show for `CC(=O)N1CCN(CC(C)(C)NS(=O)(=O)c2ccccc2)CC1`?
Mtb hypoxia rep: -5; ugtP null kill: 11; RN4220 kill: 10; Autofluor counter: 2947; PrP UTR inh: -11; Mtb hypoxia rep growth: -4

Results, from the first entry:
Results for CCOc1ccc(/C=C(\C#N)C(=O)Nc2cccnc2)cc1 ?
Mtb hypoxia rep: 9; ugtP null kill: -1; RN4220 kill: 5.4; BJeLR viability: 1; Autofluor counter: 2338; PrP UTR inh: -14; Mtb hypoxia rep growth: 3

Results for CCOC(=O)C1CCN(C(=S)Nc2ccc(S(N)(=O)=O)cc2)CC1 ?
Mtb hypoxia rep: 0; ugtP null kill: 2; RN4220 kill: 5.4; BJeLR viability: 7; Autofluor counter: 2050; PrP UTR inh: -23; Mtb hypoxia rep growth: 17

How did Cc1ccc(C)c(OCC(=O)N/N=C/c2ccsc2)c1 do in these assays?
BJeLR viability: -1; Autofluor counter: 5012; PrP UTR inh: -14

What do the screens show for `CC(=O)N1CCN(CC(C)(C)NS(=O)(=O)c2ccccc2)CC1`?
Mtb hypoxia rep: -5; ugtP null kill: 11; RN4220 kill: 10; Autofluor counter: 2947; PrP UTR inh: -11; Mtb hypoxia rep growth: -4

Results for CCS(=O)(=O)c1ccc2oc(SCC(=O)N3CCCCC3)nc2c1 ?
Mtb hypoxia rep: 9; ugtP null kill: 7; RN4220 kill: 0.9; BJeLR viability: 6; Autofluor counter: 3822; PrP UTR inh: -17; Mtb hypoxia rep growth: 8

How did COc1ccc(NC(=O)c2cccs2)cc1OC do in these assays?
Mtb hypoxia rep: 3; ugtP null kill: 2; RN4220 kill: -0.3; BJeLR viability: -16; Autofluor counter: 9475; PrP UTR inh: -20; Mtb hypoxia rep growth: 9

What do the screens show for `Cc1ccc(CN2CCNC(=O)C2CC(=O)N(C)C(C2CC2)C2CC2)o1` (stereo not drawn)?
Mtb hypoxia rep: 3; ugtP null kill: 1; RN4220 kill: 3.6; BJeLR viability: -21; Autofluor counter: 2863; PrP UTR inh: -21; Mtb hypoxia rep growth: 0

How did COc1ccc(S(=O)(=O)NC2CCCC2)cc1Cl do in these assays?
Mtb hypoxia rep: 2; ugtP null kill: 3; RN4220 kill: 3.1; BJeLR viability: -2; Autofluor counter: 6226; PrP UTR inh: -21; Mtb hypoxia rep growth: 7

How did Cc1ccc(C)c(OCCCNC2CCCC2)c1C do in these assays?
Mtb hypoxia rep: -9; ugtP null kill: 3; RN4220 kill: 0.7; BJeLR viability: 9; Autofluor counter: 2224; PrP UTR inh: -4; Mtb hypoxia rep growth: 10

How did O=C(N/N=C/c1ccco1)/C(=C/c1cccc([N+](=O)[O-])c1)NC(=O)c1ccccc1 do in these assays?
BJeLR viability: -13; Autofluor counter: 22258*; PrP UTR inh: 3

What do the screens show for `COC(=O)C1(CO)NC(c2cccs2)C2C(=O)N(c3ccccc3)C(=O)C21` (stereo not drawn)?
Mtb hypoxia rep: 0; ugtP null kill: 4; RN4220 kill: 1.0; BJeLR viability: 10; Autofluor counter: 4255; PrP UTR inh: -18; Mtb hypoxia rep growth: 1

Results for COc1cc(C(=O)NC2(C(F)(F)F)NC(=O)N(CCCc3ccccc3)C2=O)cc(OC)c1OC (stereo not drawn) ?
Mtb hypoxia rep: 9; ugtP null kill: 7; RN4220 kill: 1.1; BJeLR viability: -1; Autofluor counter: 7636; PrP UTR inh: -16; Mtb hypoxia rep growth: 10

What do the screens show for `O=C1CC(c2ccc(Cl)cc2)Oc2ccc(Cl)cc21` (stereo not drawn)?
Mtb hypoxia rep: 9; ugtP null kill: 20; RN4220 kill: -2.5; Autofluor counter: 3457; PrP UTR inh: -13; Mtb hypoxia rep growth: 3

Results for Cc1ccc(CN2CCN(Cc3ccc(C)s3)CC2CCO)cc1 (stereo not drawn) ?
Mtb hypoxia rep: 6; ugtP null kill: 16; RN4220 kill: 3.9; BJeLR viability: 5; Autofluor counter: 2323; PrP UTR inh: -14; Mtb hypoxia rep growth: -3

How did CCOc1ccccc1NC(=O)C1C2CCC(O2)C1C(=O)O (stereo not drawn) do in these assays?
Mtb hypoxia rep: -5; ugtP null kill: 1; RN4220 kill: 2.3; BJeLR viability: 7; Autofluor counter: 4132; PrP UTR inh: -27; Mtb hypoxia rep growth: 3

How did CN(C)/C=C(\C#N)C(=O)Nc1ccc(F)cc1 do in these assays?
ugtP null kill: 4; RN4220 kill: 2.6; BJeLR viability: -1; Autofluor counter: 2146; PrP UTR inh: -37

Results for CCOC(=O)C1=C(C)N=C2SC(C)C(=O)N2C1c1ccc(OCC)c(OCC)c1 (stereo not drawn) ?
Mtb hypoxia rep: 10; ugtP null kill: -5; RN4220 kill: 3.3; BJeLR viability: 2; Autofluor counter: 2961; PrP UTR inh: -4; Mtb hypoxia rep growth: 4

What do the screens show for `CN(C)C=NC(=O)c1cc(C(=O)c2ccccc2Cl)c[nH]1`?
Mtb hypoxia rep: -4; ugtP null kill: 8; RN4220 kill: 2.8; BJeLR viability: 8; Autofluor counter: 2558; PrP UTR inh: -13; Mtb hypoxia rep growth: 5

What do the screens show for `CCOC(=O)C1=C(N)Oc2c(oc(CO)cc2=O)C1c1ccccc1` (stereo not drawn)?
Mtb hypoxia rep: 0; ugtP null kill: 14; RN4220 kill: 2.9; BJeLR viability: -2; Autofluor counter: 4497; PrP UTR inh: 0; Mtb hypoxia rep growth: 6

How did O=S(=O)(NCC1CCCO1)c1ccccc1F (stereo not drawn) do in these assays?
Mtb hypoxia rep: 15; ugtP null kill: -4; RN4220 kill: 2.2; BJeLR viability: 1; Autofluor counter: 3500; PrP UTR inh: -12; Mtb hypoxia rep growth: 7

How did CCn1c(C=Nn2cnnc2)nc2ccccc21 do in these assays?
Mtb hypoxia rep: 6; ugtP null kill: -1; RN4220 kill: 0.4; Mtb hypoxia rep growth: 0

Results for NC(=O)Cn1cc(C(=O)COc2ccccc2)c2ccccc21 ?
Mtb hypoxia rep: 4; ugtP null kill: 4; RN4220 kill: 11; BJeLR viability: -9; Mtb hypoxia rep growth: 1

Results for COc1ccc(Oc2cccc(Cl)c2CNC(=O)CCC(=O)O)cc1 ?
Mtb hypoxia rep: -12; ugtP null kill: -5; RN4220 kill: 2.0; BJeLR viability: 2; Autofluor counter: 4229; PrP UTR inh: -25; Mtb hypoxia rep growth: -5

Results for O=C1CC2CS(=O)(=O)CC2N1c1ccc(Oc2ccccc2)cc1 (stereo not drawn) ?
ugtP null kill: 1; RN4220 kill: -2.6; BJeLR viability: -2; Autofluor counter: 4848; PrP UTR inh: -3

What do the screens show for `CC(C)C(NC(=O)Nc1ccccc1)C(=O)Nc1cccc(S(=O)(=O)N(C)C)c1` (stereo not drawn)?
Mtb hypoxia rep: -7; ugtP null kill: -6; RN4220 kill: -3.5; BJeLR viability: -1; Autofluor counter: 5096; PrP UTR inh: -10; Mtb hypoxia rep growth: -3

What do the screens show for `Cc1ccccc1-n1c(C)n[nH]c1=S`?
Mtb hypoxia rep: 10; ugtP null kill: 2; RN4220 kill: 1.0; BJeLR viability: -3; Autofluor counter: 9194; PrP UTR inh: -18; Mtb hypoxia rep growth: 3

What do the screens show for `COC(=O)c1ccc(NCCc2csc(-c3ccc(C)cc3)n2)c([N+](=O)[O-])c1`?
Mtb hypoxia rep: -11; ugtP null kill: -7; RN4220 kill: 1.0; BJeLR viability: -9; Autofluor counter: 4360; PrP UTR inh: 1; Mtb hypoxia rep growth: 0

Results for CCCCc1nn(-c2cc(Cl)ccc2OC)c2c1C(=O)CCC2 ?
Mtb hypoxia rep: 4; ugtP null kill: 10; RN4220 kill: 1.8; BJeLR viability: 10; Autofluor counter: 4391; PrP UTR inh: 2; Mtb hypoxia rep growth: 4

How did O=S(=O)(c1ccccc1)c1nc(-c2ccco2)oc1NCc1cccnc1 do in these assays?
ugtP null kill: 5; RN4220 kill: 4.2; BJeLR viability: -6; Autofluor counter: 3384; PrP UTR inh: -18

How did O=c1ccc(Oc2nc(N3CCOCC3)nc(N3CCOCC3)n2)nn1-c1ccccc1 do in these assays?
Mtb hypoxia rep: -3; ugtP null kill: -1; RN4220 kill: -0.2; BJeLR viability: -12; Autofluor counter: 9640; PrP UTR inh: -10; Mtb hypoxia rep growth: 2

How did COc1ccc(C[C@H]2CN3C(=NC[C@H]3C)N2CCNC(=O)CCC2CCCCC2)cc1 do in these assays?
BJeLR viability: -16; Autofluor counter: 3182; PrP UTR inh: -14

What do the screens show for `COc1cccc(-n2c(Cc3cc(=O)[nH]c(=O)[nH]3)nnc2SCC(=O)N2CCCCC2)c1`?
ugtP null kill: -2; RN4220 kill: 2.8; BJeLR viability: 1; Autofluor counter: 6277; PrP UTR inh: -5

What do the screens show for `Cc1ccc(-n2c(SCC(N)=O)nnc2-c2cccnc2)c(C)c1`?
Mtb hypoxia rep: -5; ugtP null kill: 2; RN4220 kill: 4.0; BJeLR viability: -7; Autofluor counter: 9987; PrP UTR inh: -14; Mtb hypoxia rep growth: 9

What do the screens show for `O=C(c1ccc(F)cc1)C1CCN(Cc2cn[nH]c2-c2ccc(F)cc2)CC1`?
Mtb hypoxia rep: 8; ugtP null kill: 2; RN4220 kill: 3.6; BJeLR viability: 11; Autofluor counter: 6481; PrP UTR inh: -3; Mtb hypoxia rep growth: 18

How did Cc1ccc(NC(=O)CN2CCC(NC(=O)Cc3ccccc3)CC2)c(C)c1 do in these assays?
Mtb hypoxia rep: 2; ugtP null kill: 2; RN4220 kill: 1.6; BJeLR viability: -1; Autofluor counter: 2581; PrP UTR inh: -4; Mtb hypoxia rep growth: 14

Results for Oc1cc(Cl)cc(Cl)c1Cl ?
Mtb hypoxia rep: 11; ugtP null kill: -8; RN4220 kill: 16; Autofluor counter: 4328; PrP UTR inh: -14; Mtb hypoxia rep growth: 8

How did CCc1ccccc1NC(=O)COC(=O)c1c(C)nsc1NC do in these assays?
Mtb hypoxia rep: -2; ugtP null kill: -1; RN4220 kill: 0.5; Autofluor counter: 8912; PrP UTR inh: -9; Mtb hypoxia rep growth: 2

How did Cc1ccc(C)c(N(CC(=O)NCc2ccco2)C(=O)CCC(=O)Nc2ccccn2)c1 do in these assays?
ugtP null kill: 5; RN4220 kill: 0.2; BJeLR viability: -5; Autofluor counter: 4320; PrP UTR inh: -10

Results for CC(=O)c1c(C)[nH]c(C(=O)OCC(=O)N2CC(C)OC(C)C2)c1C (stereo not drawn) ?
Mtb hypoxia rep: 2; ugtP null kill: 12; RN4220 kill: -0.2; BJeLR viability: 10; Autofluor counter: 6081; PrP UTR inh: -14; Mtb hypoxia rep growth: 0

Results for CCN(CC)c1ccc(C=Nc2cccc(S(=O)(=O)N3CCOCC3)c2)c(O)c1 ?
Mtb hypoxia rep: 9; ugtP null kill: -1; RN4220 kill: 5.9; Autofluor counter: 3355; PrP UTR inh: -5; Mtb hypoxia rep growth: -2

How did O=C(O)C1C2C=CC(C2)C1C(=O)NCCc1cccc(Cl)c1 (stereo not drawn) do in these assays?
ugtP null kill: -5; RN4220 kill: 13; BJeLR viability: -7; Autofluor counter: 3396; PrP UTR inh: -19

Copied from the listing, 2 compounds:
Results for CCN(CC)c1ccc(C=Nc2cccc(S(=O)(=O)N3CCOCC3)c2)c(O)c1 ?
Mtb hypoxia rep: 9; ugtP null kill: -1; RN4220 kill: 5.9; Autofluor counter: 3355; PrP UTR inh: -5; Mtb hypoxia rep growth: -2

How did O=C(O)C1C2C=CC(C2)C1C(=O)NCCc1cccc(Cl)c1 (stereo not drawn) do in these assays?
ugtP null kill: -5; RN4220 kill: 13; BJeLR viability: -7; Autofluor counter: 3396; PrP UTR inh: -19

Assay outcomes from PubChem.

Random draw from the library; any-hit rate near 4%.
